B2AR ag – agonists of human beta-2 adrenergic receptor inducing internalization; P07550; Am2.2-beta2AR cells, FAP receptor internalization, flow cytometry; reference of the scale not given here; response, % (no concentration beside the values); actives 0.43% (n = 340,000); AID 504454;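 active = response above a set limit, near 3 SD of response in nonfluorescent compounds, cut at about 42% in these data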;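 note: stock transfer was 100 nL into about 11 µL; a reference agonist was the positive control; negative values mostly stem from fluorescent compounds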
Target sequence (P07550 whole entry, looked up): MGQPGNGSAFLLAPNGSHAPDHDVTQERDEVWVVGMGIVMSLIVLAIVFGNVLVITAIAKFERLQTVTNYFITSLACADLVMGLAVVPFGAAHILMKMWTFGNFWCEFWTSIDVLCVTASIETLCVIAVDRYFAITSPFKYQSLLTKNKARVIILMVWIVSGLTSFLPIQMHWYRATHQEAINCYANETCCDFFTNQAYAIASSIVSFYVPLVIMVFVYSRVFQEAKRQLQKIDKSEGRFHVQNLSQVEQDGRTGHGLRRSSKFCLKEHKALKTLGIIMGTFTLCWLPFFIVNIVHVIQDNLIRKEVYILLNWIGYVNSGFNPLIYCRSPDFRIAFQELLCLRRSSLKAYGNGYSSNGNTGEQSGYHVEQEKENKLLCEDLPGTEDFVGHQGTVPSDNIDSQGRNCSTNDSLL
HNF4A DNA FP – change in binding of human HNF4 alpha to DNA. HNF4a-FITC DNA binding, fluorescence polarization, 1 h. activity change, % at 10 µM. actives 0.3% (n = 360,000); in the data active = activity change above about 30%, passing the limit was not always enough;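 note: controls were the assay level and a saturating level of protein; the project sought stronger binding though the title names inhibitors; some compounds called inactive have numbers as strong as hits; positive values seem to mean higher polarization but the record does not say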
Target sequence (P41235 whole entry, looked up): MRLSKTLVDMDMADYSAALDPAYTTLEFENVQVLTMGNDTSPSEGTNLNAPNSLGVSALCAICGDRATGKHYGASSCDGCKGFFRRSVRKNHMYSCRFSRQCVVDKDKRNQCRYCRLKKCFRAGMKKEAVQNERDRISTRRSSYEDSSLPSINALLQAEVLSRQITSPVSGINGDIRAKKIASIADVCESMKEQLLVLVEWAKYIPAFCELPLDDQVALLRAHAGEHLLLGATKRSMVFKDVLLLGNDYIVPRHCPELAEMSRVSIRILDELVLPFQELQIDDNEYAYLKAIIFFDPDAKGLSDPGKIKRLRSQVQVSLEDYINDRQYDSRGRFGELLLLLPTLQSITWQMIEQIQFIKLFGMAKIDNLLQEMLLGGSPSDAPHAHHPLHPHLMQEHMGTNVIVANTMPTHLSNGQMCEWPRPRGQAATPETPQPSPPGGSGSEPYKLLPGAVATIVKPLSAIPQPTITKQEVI
Calb FLC – C. albicans growth modulation with fluconazole; C. albicans CaCi-2 (fluconazole-resistant clinical isolate) + fluconazole, Alamar Blue growth, 48 h; actives 0.57% (n = 300,000); growth inhibition, % (no concentration beside the values); AID 1979;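 active = most replicates above 75%; inconclusive = exactly half above 75%; inactive = most below 75%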;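 note: all wells also contain fluconazole at 8 µg/ml as a sub-toxic cotreatment; 0% = median of DMSO wells and 100% = median of geldanamycin control wells; wells of about 8 µL received 7.5 nL stock; the first replicate is given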
RanGTP-Impb inh – disruptors of Ran-importin-beta complex formation – biochemical, FRET, CFP-Ran, YFP-importin-beta, homogeneous, primary screen. actives 1.1% (n = 300,000). inhibition, % (concentration not given with the values). AID 2216. cell-free CFP-Ran/YFP-importin-beta FRET ratio;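 active = most replicates above 15%; inconclusive = exactly half above 15%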;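 note: 0% = DMSO wells and 100% = Ran loaded with GDP instead of GTP; wells of about 40 µL received 100 nL stock; the first replicate is given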
LANA-H2A inh – blocks KSHV LANA binding to histone H2A/H2B | Q9QR71 | cell-free LANA-H2A/H2B peptide, fluorescence polarization | inhibition, % (no concentration beside the values) | actives 0.6% (n = 320,000); in the data active = inhibition mostly above about 10%, no sharp cut-off; inactive = mostly below about 6.7%;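 note: stock transfer was 7.5 nL into about 10 µL; 0% = median of vehicle wells and 100% = median of positive control wells; one replicate is shown; the record names a cut of 25% in any replicate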
ALR H2O2 inh – blocks human ALR sulfhydryl oxidase activity; P55789; purified ALR, DTT oxidation, H2O2 HRP-luminol luminescence; inhibition, % (test concentration not listed); actives 3.8% (n = 290,000); AID 485317;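 active = mean and each replicate at 75% or more; inconclusive = only one of the two met; inactive = neither met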;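 note: stock transfer was 7.5 nL into about 7.5 µL; 0% = neutral wells and 100% = wells with inactivated enzyme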
Target sequence (P55789 whole entry, looked up): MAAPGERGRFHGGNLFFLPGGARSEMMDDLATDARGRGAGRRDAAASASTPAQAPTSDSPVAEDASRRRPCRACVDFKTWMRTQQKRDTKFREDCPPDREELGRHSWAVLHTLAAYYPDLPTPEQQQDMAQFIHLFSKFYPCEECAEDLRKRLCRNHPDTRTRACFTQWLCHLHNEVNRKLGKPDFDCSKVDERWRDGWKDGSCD
Vif A3G – inhibitors of Vif binding to APOBEC3G peptide, primary screen, biochemical, TR-FRET, GST-Vif 1-94, biotin-A3G peptide, dose response retest (AID 1117319); TR-FRET GST-Vif / biotin-A3G peptide binding; higher % means a stronger effect; test concentration not given here; strong numbers were not always called active; one-dose inhibition, %; IC50 in µM for titrated hits; actives 0.57% (n = 260,000);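 active = above the screen mean plus three standard deviations and confirmed in dose response; inconclusive = results disagree or hit not tested in dose response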;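 note: Vif residues 1-94 fused to GST binding biotinylated APOBEC3G peptide 110-148; 0% = full assay without inhibitor and 100% = GST in place of GST-Vif; retest series ran down from 100 µM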
The depositor's hits bear a star.

CCCOc1ccccc1OCC(=O)Nc1cc(Cl)ccc1-n1cncn1 was read as B2AR ag 1.7, HNF4A DNA FP -0.8, Calb FLC 8.2, RanGTP-Impb inh -1.2, LANA-H2A inh -6.9, ALR H2O2 inh 0.8 and Vif A3G 29.3%.
Screening O=C(COCc1ccccc1)N[C@@H]1c2ccccc2CC[C@H]1OCc1ccccc1 returned B2AR ag -4.1, HNF4A DNA FP 3.1 and Vif A3G -5.7%.
For COc1ccc(NC(=O)C2CCCN(c3nccc(C)n3)C2)cc1 (configuration not stated) the results were B2AR ag 5.2, HNF4A DNA FP 0.9, Calb FLC 0.1, RanGTP-Impb inh inconclusive, LANA-H2A inh 0.6, ALR H2O2 inh -1.6 and Vif A3G 1.8%.
Screening COc1ccc(-c2cc3nc4ccccc4n3c(N)c2C#N)cc1 returned B2AR ag 30.9, HNF4A DNA FP 6.2, Calb FLC 11.0, RanGTP-Impb inh 3.6, LANA-H2A inh 0.2, ALR H2O2 inh -2.5 and Vif A3G -1.1%.
Screening CCNC(=O)/C(C#N)=C/c1c(N2CCCCCC2)nc2ccccn2c1=O returned B2AR ag -15.0, HNF4A DNA FP -0.3, Calb FLC -1.1, RanGTP-Impb inh 1.3, LANA-H2A inh 0.6 and Vif A3G 0.8%.
Cc1ccc(C=NNc2nc3c([nH]2)c(=O)n(C)c(=O)n3C)cc1 was read as B2AR ag 7.8, HNF4A DNA FP 1.9 and Vif A3G -4.7%.
`CCC(=O)NCCc1nc2cc(NC(=O)c3ccccc3Cl)ccc2n1C` gave B2AR ag -6.7, HNF4A DNA FP -0.8, Calb FLC 1.4, RanGTP-Impb inh -1.2, LANA-H2A inh 2.3, ALR H2O2 inh -6.5 and Vif A3G 4.8%.
`O=C(CCn1cnnn1)NC1CCCN(Cc2ccccc2F)C1` (configuration not stated) gave B2AR ag -2.8, HNF4A DNA FP -0.3, Calb FLC -5.4, RanGTP-Impb inh 2.8, LANA-H2A inh -1.7 and ALR H2O2 inh 14.1.
`COc1ccc2[nH]cc(C(=O)CNc3nc(C)cs3)c2c1` gave B2AR ag 6.9, HNF4A DNA FP 2.6, Calb FLC 1.1, RanGTP-Impb inh -1.4, LANA-H2A inh -0.8, ALR H2O2 inh 81.2* and Vif A3G -0.4%.
For Cc1cccc(C2c3[nH]c4ccccc4c3CCN2Cc2cnn(-c3ccc(F)cc3)c2)n1 (configuration not stated) the results were B2AR ag 0.7, HNF4A DNA FP -4.8, Calb FLC -6.4, RanGTP-Impb inh 4.9, LANA-H2A inh -1.0, ALR H2O2 inh -1.9 and Vif A3G 27.5%.
For O=C(Cn1cnc2ccccc2c1=O)N1CCN(c2ccc(F)cc2)CC1 the results were B2AR ag 0.0, HNF4A DNA FP 3.3, Calb FLC 3.3, RanGTP-Impb inh 1.6, LANA-H2A inh 0.2, ALR H2O2 inh 9.6 and Vif A3G 2.5%.
For COCCNC(=O)C1(C)Oc2ccccc2NC1=O (configuration not stated) the results were B2AR ag -2.9, HNF4A DNA FP 0.9, Calb FLC 3.5, RanGTP-Impb inh 1.3, LANA-H2A inh -1.5, ALR H2O2 inh -4.4 and Vif A3G 1.8%.
For Nc1n[nH]c(N)c1N=Nc1cccc(F)c1 the results were B2AR ag 0.0, HNF4A DNA FP -0.2, Calb FLC 5.4, RanGTP-Impb inh -2.4 and Vif A3G 4.2%.
C=CCn1c(NS(=O)(=O)c2ccccc2)c(S(=O)(=O)c2ccc(C)cc2)c2nc3ccccc3nc21 was read as B2AR ag -8.9, HNF4A DNA FP 4.7, Calb FLC 10.9, RanGTP-Impb inh 75.6*, LANA-H2A inh 0.8 and ALR H2O2 inh -0.1.
For Cc1ccc2nc(-c3ccc(NC(=O)COCC(=O)O)cc3)sc2c1 the results were B2AR ag -6.6, HNF4A DNA FP 4.5, Calb FLC 1.6, RanGTP-Impb inh -4.2, LANA-H2A inh -1.4, ALR H2O2 inh -32.1 and Vif A3G 4.4%.
Screening CCCCN=C1NN=C(c2cc3ccccc3o2)CS1 returned B2AR ag -4.1, HNF4A DNA FP 17.2, Calb FLC -24.4, RanGTP-Impb inh 0.8, LANA-H2A inh -4.9, ALR H2O2 inh 3.0 and Vif A3G 25.7%.
For CN1C(C(=O)NCc2cccc(Br)c2)CC2Cn3c(nc4cc5ccccc5cc43)C21 (configuration not stated) the results were B2AR ag 3.5, HNF4A DNA FP -3.1, Calb FLC -20.8, RanGTP-Impb inh -2.5, LANA-H2A inh -1.2 and Vif A3G -2.4%.
`CN1CCC[C@@H]1CCNC(=O)c1c(-c2ccc3c(c2)OCO3)noc1-c1ccsc1` gave B2AR ag 8.8, HNF4A DNA FP 4.4, LANA-H2A inh 4.8 and ALR H2O2 inh -4.6.
O=C(c1cnc(Cl)c(Cl)c1)N1CCC(Cc2ccccc2)CC1 was read as B2AR ag 7.0, HNF4A DNA FP 0.4, Calb FLC -22.9, RanGTP-Impb inh 5.6, LANA-H2A inh 1.2 and ALR H2O2 inh -5.7.
COc1cccc2cc(C(=O)NCc3ccc(Cl)cc3)c(=O)oc12 was read as B2AR ag 12.9, HNF4A DNA FP -1.1, Calb FLC -0.7, RanGTP-Impb inh -2.8, LANA-H2A inh 0.0 and ALR H2O2 inh -2.2.
For O=c1cc(/C=C/c2ccccc2)oc2c1ccc1ccccc12 the results were B2AR ag -3.4, HNF4A DNA FP -4.2, Calb FLC -6.5, RanGTP-Impb inh -0.3, LANA-H2A inh -0.5 and ALR H2O2 inh -3.2.
For CCCC(=O)Nc1nnc(SCC(=O)N2CCCCC2)s1 the results were B2AR ag 6.4, HNF4A DNA FP 1.9, Calb FLC -0.3, RanGTP-Impb inh 4.6, LANA-H2A inh 0.5 and ALR H2O2 inh -2.4.
Screening O=C(Cc1cccs1)Nc1ccc(S(=O)(=O)Nc2ncccn2)cc1 returned B2AR ag -0.9, HNF4A DNA FP -0.9, LANA-H2A inh -3.8, ALR H2O2 inh -20.2 and Vif A3G 26.2%.
Screening CN(C)c1ccc(CNC(=O)CCNS(=O)(=O)c2cc(Br)cnc2N)cc1 returned B2AR ag 4.1, HNF4A DNA FP 1.0, Calb FLC -7.3, RanGTP-Impb inh -1.7, LANA-H2A inh -0.9, ALR H2O2 inh 9.2 and Vif A3G 28.2%.
Screening O=C(NC1CCCCCCC1)c1ccc(F)cc1 returned B2AR ag -4.8, HNF4A DNA FP -3.7, Calb FLC 1.2, RanGTP-Impb inh -3.7, LANA-H2A inh 2.3 and ALR H2O2 inh -12.7.
`CC(C)(C)N1C(=O)c2ccc(C(=O)Nc3ccc(C(=O)O)cc3)cc2C1=O` gave B2AR ag -7.1, HNF4A DNA FP 0.1, Calb FLC -1.6, RanGTP-Impb inh 2.5, LANA-H2A inh 0.7 and ALR H2O2 inh -16.0.
`CCN(CC)c1ccc2cc(NC(=O)CCC(=O)O)c(=O)oc2c1` gave B2AR ag -1.3, HNF4A DNA FP -49.2, Calb FLC 34.1, RanGTP-Impb inh 136.0*, LANA-H2A inh 0.8, ALR H2O2 inh 98.6* and Vif A3G 2.1%.
CCOC(=O)c1sc(C)c2c1NC(c1ccc(Cl)cc1)NC2=O (configuration not stated) was read as B2AR ag 3.6, HNF4A DNA FP -12.2, Calb FLC 29.5, RanGTP-Impb inh -1.2, LANA-H2A inh -1.5, ALR H2O2 inh 3.7 and Vif A3G -0.9%.
CC(NC(=O)Cc1ccccc1F)c1ccc(F)cc1 (configuration not stated) was read as B2AR ag -40.7, HNF4A DNA FP -0.7, Calb FLC -0.6, RanGTP-Impb inh -1.7, LANA-H2A inh 2.9, ALR H2O2 inh -0.8 and Vif A3G -0.7%.
`O=C(NCc1ccc2c(c1)OCO2)C1CCC(CNS(=O)(=O)c2cccc3nsnc23)CC1` (configuration not stated) gave B2AR ag -2.9, HNF4A DNA FP -1.1, Calb FLC -2.5, RanGTP-Impb inh -1.1, LANA-H2A inh 2.5 and Vif A3G -4.4%.
For CCOC(=O)CSC1=NC(=O)/C(=C/c2ccc(OC)cc2)S1 the results were B2AR ag 69.4*, HNF4A DNA FP 2.0, Calb FLC -15.9, RanGTP-Impb inh 5.6, LANA-H2A inh 3.9 and ALR H2O2 inh 98.6*.
Cc1nc(C)c(-c2ccc(SCC(=O)Nc3cccc(F)c3)nn2)s1 was read as B2AR ag 1.8, HNF4A DNA FP -1.6, Calb FLC 1.2, RanGTP-Impb inh -2.5, LANA-H2A inh 0.0, ALR H2O2 inh 23.2 and Vif A3G -19.5%.
`CCC(CC)=NNc1ccc([N+](=O)[O-])cc1[N+](=O)[O-]` gave B2AR ag 2.0, HNF4A DNA FP -4.5, Calb FLC -17.0, RanGTP-Impb inh -3.4, LANA-H2A inh -0.3, ALR H2O2 inh 7.9 and Vif A3G 0.1%.
COC(=O)Nc1ccc(S(=O)(=O)NCCCCCC(=O)O)cc1 was read as B2AR ag 1.6, HNF4A DNA FP -1.1, Calb FLC -1.9, RanGTP-Impb inh inconclusive, LANA-H2A inh -4.6, ALR H2O2 inh 1.1 and Vif A3G inconclusive.
For CC(=O)Nc1ccc(S(=O)(=O)N2CCN(C(C)CCc3ccccc3)CC2)cc1 (configuration not stated) the results were B2AR ag -8.1, HNF4A DNA FP -3.3, Calb FLC -14.8, RanGTP-Impb inh -0.8, LANA-H2A inh 1.5 and Vif A3G 1.1%.
Screening CCOc1ccc2nc(SCC(=O)c3ccc(O)cc3O)sc2c1 returned B2AR ag -1.7, HNF4A DNA FP -1.6, Calb FLC 4.3, RanGTP-Impb inh inconclusive, LANA-H2A inh -4.9, ALR H2O2 inh 0.9 and Vif A3G -4.8%.
For COc1ccc(CCN(C)C(=O)c2cnc(C)cn2)cc1OC the results were B2AR ag 6.8, HNF4A DNA FP -1.4, Calb FLC 3.0, RanGTP-Impb inh -1.6, LANA-H2A inh 0.4 and ALR H2O2 inh 1.0.
O=C(N=C1SC2CS(=O)(=O)CC2N1CCc1ccc(F)cc1)C1CCCCC1 (configuration not stated) was read as B2AR ag -11.8, HNF4A DNA FP -4.1, Calb FLC -0.8, RanGTP-Impb inh 1.9, LANA-H2A inh 3.7, ALR H2O2 inh -13.9 and Vif A3G -5.7%.
For C=CCn1c(C)cc(C(=O)COC(=O)[C@@H](NC(=O)c2ccccc2Cl)C(C)C)c1C the results were B2AR ag 2.8, HNF4A DNA FP -5.0, Calb FLC -5.5, RanGTP-Impb inh -2.3, LANA-H2A inh 1.9 and ALR H2O2 inh -8.9.
For CC(=O)c1ccc(Oc2ccc(C(C)=O)cc2)cc1 the results were B2AR ag -9.8, HNF4A DNA FP 0.2, Calb FLC -3.2, RanGTP-Impb inh -0.3, LANA-H2A inh 6.5, ALR H2O2 inh -6.0 and Vif A3G 15.7%.
`N#C/C(=C\c1ccc(N2CCOCC2)o1)C(=O)N1CCOCC1` gave B2AR ag 15.3, HNF4A DNA FP 152.9, Calb FLC 18.3, RanGTP-Impb inh 56.4*, LANA-H2A inh -43.7, ALR H2O2 inh 83.6* and Vif A3G 1.0%.
`CCCN(C(=O)COC(=O)CCOc1ccc(C)cc1)c1c(N)n(Cc2ccccc2)c(=O)[nH]c1=O` gave B2AR ag -4.4, HNF4A DNA FP 5.1, Calb FLC -2.3, RanGTP-Impb inh -1.3, LANA-H2A inh -1.4, ALR H2O2 inh -5.8 and Vif A3G -5.9%.

Gathered by group, the entries above containing a furan ring, fused or not (2)
Screening CCCCN=C1NN=C(c2cc3ccccc3o2)CS1 returned B2AR ag -4.1, HNF4A DNA FP 17.2, Calb FLC -24.4, RanGTP-Impb inh 0.8, LANA-H2A inh -4.9, ALR H2O2 inh 3.0 and Vif A3G 25.7%.
`N#C/C(=C\c1ccc(N2CCOCC2)o1)C(=O)N1CCOCC1` gave B2AR ag 15.3, HNF4A DNA FP 152.9, Calb FLC 18.3, RanGTP-Impb inh 56.4*, LANA-H2A inh -43.7, ALR H2O2 inh 83.6* and Vif A3G 1.0%.

Screening results from PubChem BioAssay.
